DUX4 inh: inhibitors of DUX4-driven ZSCAN4 reporter expression, primary screen, 293T cells, Gaussia and Italica luciferase | 293T-iDUX4 ZSCAN4-Gaussia luciferase reporter, 24 h; active compounds read low | activity change, negative = inhibition, % (no concentration beside the values) | 0.8% of 37,000 active | AID 1224904, 2016;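 active = -10% or lower and over 25 points stronger than a control reporter; inconclusive = -10% or lower with a smaller gap; inactive = above -10%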;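 also: 0% = median of neutral control wells and -100% = median of positive control wells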
DUX4 inh difference: further read-out of DUX4 inh, marked with its call; Gaussia minus Italica difference, %; measured here: selective DUX4 reporter inhibition;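 worked out from the two reporters; negative = selective loss of the DUX4 reporter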
DUX4 inh control: recorded beside DUX4 inh, whose call it bears; activity change, negative = inhibition, %; measured here: Italica tet-on control reporter;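 0 = neutral control and -100 = positive control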
* hit, by the source's call; ? = inconclusive; / = no result given; & = joins results of further samples. Some of the compounds tested, so the mix of outcomes need not match the whole.

SMILES	DUX4 inh	DUX4 inh difference	DUX4 inh control
O=C(Nc1ccc(F)cc1)N1CC(=O)N2[C@H](C1)[C@@H](c1ccc(-c3cccc(F)c3)cc1)[C@@H]2CO	-10	6	-15
C[C@@H]1CN([C@H](C)CO)S(=O)(=O)c2ccc(C#Cc3cccc(F)c3)cc2O[C@@H]1CN(C)S(=O)(=O)c1cn(C)cn1	-5	0	-5.1
O=C(NC1CCCC1)[C@@H]1[C@@H](CO)[C@@H]2Cn3c(ccc(C4=CCCCC4)c3=O)[C@H]1N2CC1CC1	-1	9	-9.4
O=C(c1cccc(F)c1)N1CC(=O)N2[C@@H](CO)[C@H](c3ccc(-c4ccccc4F)cc3)[C@@H]2C1	6	6	-0.9
Cc1ccccc1S(=O)(=O)N1CC[C@@H]2[C@H](CO)N(C)c3ccc(Br)cc3[C@@H]21	6	11	-5.3
O=C(C1CC1)N1CC[C@@H]2[C@H](CO)Nc3ccc(-c4ccc(F)cc4)cc3[C@@H]21	?	/	/
COc1ccc(C#Cc2ccc([C@H]3[C@H]4CN(C(=O)c5cccnc5)CC(=O)N4[C@H]3CO)cc2)cc1	4	1	2.2
C[C@@H]1CN([C@@H](C)CO)C(=O)c2c(c3ccccc3n2C)-c2ccccc2CO[C@H]1CN(C)S(=O)(=O)c1ccsc1	-4	-4	-0.2
COc1ccc(S(=O)(=O)N[C@@H]2CC[C@H](CC(=O)O)O[C@@H]2CO)cc1	-1	2	-2.7
CN(C)CCCNC(=O)C[C@@H]1CC[C@@H]2[C@H](COc3ccc(NC(=O)c4ccccc4F)cc3C(=O)N2C)O1	-4	-4	0.9
CC(C)CC#Cc1cnc2c(c1)C(=O)N([C@H](C)CO)C[C@@H](C)[C@@H](CN(C)Cc1cccc(F)c1)O2	-2	-3	0.5
COc1ccc2c3c(n(C)c2c1)[C@H](CO)NCC31CCN(C(=O)c2ccccc2)CC1	-3	-5	2.5
CCC(=O)N1C[C@@H](C)[C@@H](OC)CN(C)C(=O)c2cc(NC(=O)c3ccccc3)ccc2OC[C@H]1C	1	1	-0.2
N#C[C@@H]1[C@@H](c2ccc(-c3cccc(F)c3)cc2)[C@@H](CO)N1C(=O)c1cccnc1	3	3	0.9
COc1ccccc1NC(=O)N1C[C@@H](O)COC[C@H]2O[C@H](CC(=O)NCc3ccccc3)CC[C@@H]21	5	6	-0.8

For convenience, 12 of the compounds above:
SMILES	DUX4 inh	DUX4 inh difference	DUX4 inh control
O=C(NC1CCCC1)[C@@H]1[C@@H](CO)[C@@H]2Cn3c(ccc(C4=CCCCC4)c3=O)[C@H]1N2CC1CC1	-1	9	-9.4
O=C(c1cccc(F)c1)N1CC(=O)N2[C@@H](CO)[C@H](c3ccc(-c4ccccc4F)cc3)[C@@H]2C1	6	6	-0.9
Cc1ccccc1S(=O)(=O)N1CC[C@@H]2[C@H](CO)N(C)c3ccc(Br)cc3[C@@H]21	6	11	-5.3
O=C(C1CC1)N1CC[C@@H]2[C@H](CO)Nc3ccc(-c4ccc(F)cc4)cc3[C@@H]21	?	/	/
COc1ccc(C#Cc2ccc([C@H]3[C@H]4CN(C(=O)c5cccnc5)CC(=O)N4[C@H]3CO)cc2)cc1	4	1	2.2
C[C@@H]1CN([C@@H](C)CO)C(=O)c2c(c3ccccc3n2C)-c2ccccc2CO[C@H]1CN(C)S(=O)(=O)c1ccsc1	-4	-4	-0.2
COc1ccc(S(=O)(=O)N[C@@H]2CC[C@H](CC(=O)O)O[C@@H]2CO)cc1	-1	2	-2.7
CN(C)CCCNC(=O)C[C@@H]1CC[C@@H]2[C@H](COc3ccc(NC(=O)c4ccccc4F)cc3C(=O)N2C)O1	-4	-4	0.9
CC(C)CC#Cc1cnc2c(c1)C(=O)N([C@H](C)CO)C[C@@H](C)[C@@H](CN(C)Cc1cccc(F)c1)O2	-2	-3	0.5
COc1ccc2c3c(n(C)c2c1)[C@H](CO)NCC31CCN(C(=O)c2ccccc2)CC1	-3	-5	2.5
CCC(=O)N1C[C@@H](C)[C@@H](OC)CN(C)C(=O)c2cc(NC(=O)c3ccccc3)ccc2OC[C@H]1C	1	1	-0.2
N#C[C@@H]1[C@@H](c2ccc(-c3cccc(F)c3)cc2)[C@@H](CO)N1C(=O)c1cccnc1	3	3	0.9

Remaining list, next part
SMILES	DUX4 inh	DUX4 inh difference	DUX4 inh control
CO[C@H]1CC[C@H]2CCN(C)C(=O)CC3(CCCCC3)CN(C)C(=O)c3cccc(C#N)c3OC[C@H]1O2	4	7	-2.4
COCC(=O)N1CC2(C1)[C@H](c1ccc(-c3cccc(F)c3)cc1)[C@@H](CO)N2C(=O)C1CC1	6	9	-3.4
Cc1cccc(-c2ccc([C@H]3[C@H](CO)N4C(=O)CN(C(=O)Cc5ccccn5)C[C@@H]34)cc2)c1	6	-1	7.7
CNC(=O)C[C@@H]1CC[C@H]2[C@@H](COc3ccc(NC(=O)c4ccccc4F)cc3C(=O)N2C)O1	-2	0	-1.7
Cc1ccccc1-c1ccc([C@H]2[C@@H](CO)N3CCCCN(CC4CC4)C[C@H]23)cc1	7	-7	14
CN(C)C(=O)C[C@@H]1CC[C@@H]2[C@H](COC[C@@H](O)CN2CC2CCCCC2)O1	10	7	3.0
O=C(CC1CC1)N1CC(=O)N2[C@@H](CO)[C@@H](c3ccc(-c4cccnc4)cc3)[C@@H]2C1	11	0	12
COc1cc(CN2[C@@H]3CNC[C@H]2C3c2ccc(-c3cccc(C)c3)cc2)cc(OC)c1 (stereo not given in full)	14	-7	21
CCCC(=O)N1CC2(CCN(S(C)(=O)=O)CC2)c2c([nH]c3cc(OC)ccc23)[C@H]1CO	16	-1	17
O=C(C[C@H]1CC[C@H]2[C@@H](COC[C@@H](O)CN2C(=O)Nc2ccc(Cl)cc2)O1)NCCc1ccncc1	8	-10	18
COc1cccc(-c2ccc([C@H]3[C@H](CO)N4CCCCN(S(=O)(=O)c5cccs5)C[C@@H]34)cc2)c1	9	6	3.0
CCS(=O)(=O)Nc1ccc2c(c1)C(=O)N(C)C[C@H](OC)[C@H](C)CN(C(=O)c1ccc3c(c1)OCO3)[C@@H](C)CO2	3	0	3.0
COc1cccc(S(=O)(=O)Nc2ccc3c(c2)[C@@H]2C[C@H](CC(=O)NCc4cccc(F)c4)O[C@@H](CO)[C@@H]2O3)c1	?	/	/
CCC(=O)Nc1ccc2c(c1)C(=O)N(C)C[C@H](OC)[C@H](C)CN(C(=O)Cc1cccnc1)[C@H](C)CO2	2	1	0.9
O=C(CN1CCOCC1)N1[C@@H](CO)[C@@H]2c3ccccc3NC[C@@H]21	-4	-5	1.0
COc1ccc2c3c([nH]c2c1)[C@H](CO)NCC31CN(S(=O)(=O)c2cccs2)C1	22	21	1.2
CCC(=O)N1CCC2(CC1)CN(C(=O)c1cnccn1)[C@@H](CO)c1c2c2ccc(OC)cc2n1C	6	-2	7.2
O=C(CC1CC1)Nc1ccc2c(c1)[C@@H]1C[C@@H](CC(=O)N3CCCCC3)O[C@H](CO)[C@@H]1O2	9	0	8.6
CO[C@@H]1CN(C)C(=O)c2ccc(NC(=O)Nc3cccc(F)c3)cc2OC[C@H](C)N(C(=O)Nc2c(C)noc2C)C[C@H]1C	13	7	6.0
COc1ccc(C[C@H]2CCn3cc(nn3)COC[C@@H](C(C)C)NC2=O)cc1	-4	-2	-2.6
C[C@@H]1CCCCO[C@@H](CN(C)C(=O)Nc2cccc3ccccc23)[C@H](C)CN([C@H](C)CO)C(=O)c2cc(N(C)C)ccc2O1	-3	-1	-1.6
N#C[C@@H]1[C@H](c2ccc(C#CC3CCCCC3)cc2)[C@@H](CO)N1S(=O)(=O)c1ccccc1	-8	-7	-0.2
C/C=C/c1ccc([C@H]2[C@@H](CO)N(C(=O)C3CC3)[C@@H]2CN(CC)C(C)=O)cc1	-4	-2	-2.2
COc1ccc2c3c(n(C)c2c1)[C@@H](CO)N(C(=O)c1cccnc1)CC31CCN(S(C)(=O)=O)CC1	11	6	5.4
C[C@@H](O)C#Cc1ccc([C@@H]2[C@H]3CN(S(=O)(=O)Cc4ccccc4)CCCCN3[C@H]2CO)cc1	0	-1	1.0
O=C(C[C@@H]1C[C@@H]2c3cc(NC(=O)C4CCOCC4)ccc3O[C@@H]2[C@H](CO)O1)NCc1ccc(Oc2ccccc2)cc1	1	-10	11
COc1ccc(S(=O)(=O)Nc2ccc3c(c2)[C@H]2C[C@@H](CC(=O)N(C)C)O[C@H](CO)[C@H]2O3)cc1	7	7	0.5
C[C@@H]1CN([C@H](C)CO)C(=O)c2cccc(NC(=O)c3ccncc3)c2O[C@H]1CN(C)CC1CCCCC1	8	6	2.3
O=S(=O)(c1cccc(F)c1)N1[C@@H]2CNC[C@H]1C2c1ccc(/C=C/c2ccccc2)cc1 (stereo not given in full)	6&8	8&6	-2.8&2.5
C[C@H]1COCc2cn(nn2)CCCC(=O)N1	2	6	-3.8
CCC(=O)Nc1ccc2c(c1)C(=O)N(C)C[C@H](OC)[C@H](C)CN(C(=O)COC)[C@H](C)CO2	9	9	0.2
CC(C)c1cccc(NC(=O)C[C@H]2CC[C@H]3[C@@H](COc4ccc(NC(=O)NCc5ccccc5)cc4C(=O)N3C)O2)c1	5	-2	7.6
O=C(C[C@@H]1CC[C@H]2[C@@H](COC[C@@H](O)CN2C(=O)Nc2cccc(Cl)c2)O1)NCC1CCCCC1	3	1	2.1
CC(=O)N1[C@@H]2c3cccc(=O)n3C[C@H]1[C@H](CO)[C@H]2C(=O)NCC1CCCCC1	-4	-6	2.1
CC(=O)NC[C@H]1[C@H](c2ccc(-c3ccccc3F)cc2)[C@H](CO)N1C(=O)C1CC1	0	2	-1.8
C[C@H](CO)N1C[C@H](C)[C@H](CN(C)Cc2cccc(F)c2)Oc2cc(C#Cc3ccccn3)ccc2S1(=O)=O	3	-2	4.8
COc1ccc(S(=O)(=O)N2C[C@H](O)COC[C@@H]3O[C@@H](CC(=O)N[C@H]4CCN(Cc5ccccc5)C4)CC[C@H]32)cc1	1	3	-1.9
C/C=C/c1ccc([C@@H]2[C@@H](CO)N(C(=O)C3CC3)[C@H]2CN(C)C(=O)CN(C)C)cc1	-1	3	-3.7
CCCNC(=O)N1[C@H](CO)[C@@H](c2ccccc2)C12CN(C(=O)C1CCCCC1)C2	5	9	-3.9
COc1ccc(NC(=O)N(C)C[C@@H]2Oc3ccc(N(C)C)cc3C(=O)N([C@@H](C)CO)C[C@H]2C)cc1	-3	0	-3.2
COc1cccc(C(=O)N2C[C@H]3[C@@H](c4ccccc42)[C@@H](CO)N3C(=O)c2cccc(F)c2)c1	1	-2	2.6
CCN1[C@@H]2c3ccc(C4=CCCCC4)c(=O)n3C[C@@H]2[C@@H](CO)[C@@H]1C(=O)NCc1cccc(OC)c1	-5	2	-6.9
COc1cccc(S(=O)(=O)Nc2ccc3c(c2)[C@H]2C[C@H](CC(=O)NCc4ccccc4F)O[C@H](CO)[C@H]2O3)c1	?	/	/
CCCC(=O)N1CC2(CCN(C(=O)NC(C)C)CC2)c2c(n(C)c3cc(OC)ccc23)[C@@H]1CO	15	6	8.6
COc1ccc2c3c(n(C)c2c1)[C@H](CO)N(C(=O)c1ccccn1)CC31CN(C)C1	21	12	8.7
CC(=O)N1[C@@H]2c3cccc(=O)n3C[C@H]1[C@H](CO)[C@H]2C(=O)N1CCc2ccccc2C1	1	-2	2.8
CCS(=O)(=O)Nc1ccc2c(c1)C(=O)N(C)[C@@H]1CC[C@H](CC(=O)NCCCN3CCOCC3)O[C@H]1CO2	-1	-1	0.2
O=C(C[C@@H]1CC[C@@H]2[C@H](COC[C@H](O)CN2Cc2cccc(-c3ccncc3)c2)O1)N1CCN(c2ccccc2)CC1	?	/	/
COc1cccc(NC(=O)N(C)C[C@@H]2Oc3cc(-c4cccc(C(=O)N(C)C)c4)ccc3S(=O)(=O)N([C@@H](C)CO)C[C@H]2C)c1	0	-1	1.5
CCCC(=O)Nc1ccc2c(c1)C(=O)N(C)[C@@H]1CC[C@H](CC(=O)NCC3CCCCC3)O[C@@H]1CO2	-3	-4	0.2
CC(C)NC(=O)Nc1ccc2c(c1)C(=O)N([C@H](C)CO)C[C@@H](C)[C@H](CN(C)S(=O)(=O)c1ccc(F)cc1)OCCCC[C@@H](C)O2	3	4	-1.4
C/C=C/c1ccc([C@@H]2[C@@H](C#N)N(C(=O)Cc3ccccn3)[C@@H]2CO)cc1	-1	-1	0.0
CC(C)CC#Cc1ccc([C@@H]2[C@H](CO)N3C(=O)CN(C(=O)CN4CCOCC4)C[C@@H]23)cc1	7	1	6.2
C[C@@H]1CN([C@@H](C)CO)C(=O)CCCn2cc(nn2)CO[C@H]1CN(C)S(=O)(=O)c1ccc2ccccc2c1	-4	-4	-0.2
CCCN1[C@@H]2c3ccc(C4=CCCC4)c(=O)n3C[C@@H]2[C@@H](CO)[C@@H]1C(=O)NC1Cc2ccccc2C1	-5	-14	9.0
COc1ccc(C[C@H]2CCn3cc(nn3)COC[C@H](Cc3ccccc3)NC2=O)cc1	-3	-4	1.0
CN1CCN(C(=O)C[C@@H]2CC[C@H](NC(=O)c3ccc4c(c3)OCO4)[C@@H](CO)O2)CC1	2	0	2.3
C/C=C/c1ccc([C@@H]2[C@H](CO)N3C(=O)CN(Cc4ccc(C(=O)OC)cc4)C[C@@H]23)cc1	-3	-6	3.3
CN1C(=O)c2cc(NC(=O)Cc3ccccc3)ccc2OC[C@@H]2O[C@H](CC(=O)O)CC[C@H]21	-1	-4	3.4
O=C(c1ccccc1F)N1C[C@@H]2[C@H](c3ccccc31)[C@H](CO)N2C(=O)c1ccc(F)cc1	-2	-4	1.3
COCC(=O)Nc1ccc2c(c1)OC[C@@H](C)N(CCC(F)(F)F)C[C@H](C)[C@@H](OC)CN(C)C2=O	-2	-3	0.4
C[C@@H]1CN([C@@H](C)CO)C(=O)c2cc(NC(=O)Nc3ccc(C(F)(F)F)cc3)ccc2O[C@@H](C)CCCCO[C@H]1CN(C)CC1CCCCC1	4	3	0.6

From PubChem
